# NOMO-1 viab: STK33 inhibitor candidate reducing NOMO-1 cell viability; inhibition, % (no concentration beside the values); 37,000 tested, 7.5% active; NOMO-1 AML viability, CellTiter-Glo luminescence, 72 h;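 active = most replicates above 80%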;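 note: wells of about 30 µL received 25 nL stock; 0% = median of vehicle wells and 100% = reference inhibitor level; the first replicate is given; inactives centre near 10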
# The depositor's hits bear a star. The list is partial; count on the stated rates, not on these rows.
SMILES,NOMO-1 viab
COc1ccc(CN(C)C[C@H]2Oc3ccc(NC(=O)Cc4ccccc4)cc3CC(=O)N([C@@H](C)CO)C[C@H]2C)cc1,14
COc1ccc(OCC(=O)Nc2cccc(-c3cnc4ccccc4n3)c2)cc1,16
Cc1ccc(C)c(S(=O)(=O)NC(Cc2c[nH]c3ccccc23)C(=O)O)c1 (stereo unspecified),5
Cc1nc(C)c(C(=O)C2C(=O)C(=O)N(CCN3CCOCC3)C2c2cccs2)s1 (stereo unspecified),-5
CNC[C@@H]1Oc2ccc(NC(=O)Cc3cn(C)c4ccccc34)cc2C(=O)N([C@@H](C)CO)C[C@@H]1C,-13
C[C@H]1CN([C@@H](C)CO)C(=O)c2cccc(NS(C)(=O)=O)c2O[C@H]1CN(C)CC1CC1,-2
Cc1ccc(S(=O)(=O)Nc2ccc3c(c2)C(=O)N([C@H](C)CO)C[C@H](C)[C@H](CN(C)C(=O)Nc2cccc4ccccc24)O3)cc1,24
CSC1=N/C(=C\c2ccc(Cl)cc2)C(=O)N1CCOc1ccc(Cl)cc1,9
COC(=O)c1cccc(NC(=O)CN(c2ccc(Cl)c(C(F)(F)F)c2)S(C)(=O)=O)c1C,142*
Cc1ccc(NC(=O)CSc2nnc(-c3ccco3)n2C)c(Br)c1,9

SMILES,NOMO-1 viab
O=C1/C(=C/c2ccc3ccccc3c2)COc2ccccc21,113*
C[C@@H]1CN([C@H](C)CO)C(=O)c2cccc(NC(=O)c3ccncc3)c2O[C@@H]1CN(C)C(=O)Nc1ccc(F)cc1,11
CC(C)NC(=O)Nc1cccc2c1O[C@@H](CN(C)S(=O)(=O)c1cccs1)[C@@H](C)CN([C@@H](C)CO)C2=O,-2
Cc1noc(C)c1S(=O)(=O)Nc1ccc2c(c1)CC(=O)N([C@H](C)CO)C[C@@H](C)[C@@H](CN(C)C(=O)Nc1ccc(C(F)(F)F)cc1)O2,24
C[C@H](CO)N1C[C@H](C)[C@@H](CN(C)Cc2ccc(Oc3ccccc3)cc2)Oc2ccc(NC(=O)Nc3ccc(F)cc3)cc2C1=O,29
C[C@@H]1CN([C@H](C)CO)C(=O)c2cccc(NS(=O)(=O)c3ccc(Cl)cc3)c2O[C@@H]1CN(C)C(=O)Nc1cccc2ccccc12,33
Cc1ccc(S(=O)(=O)N(C)C[C@@H]2Oc3ccc(NC(=O)Nc4ccc(F)cc4)cc3CC(=O)N([C@H](C)CO)C[C@H]2C)cc1,22
O=S(=O)(c1ccc(Br)cc1)c1nc(-c2ccc(F)cc2)oc1NCc1cccnc1,46
COc1ccc(S(=O)(=O)Nc2ccc3c(c2)C(=O)N([C@@H](C)CO)C[C@@H](C)[C@H](CN(C)C(=O)Nc2ccc(F)cc2)O3)cc1,-4
CC1=CC(C/C(C)=C/COc2ccc3ccc(=O)oc3c2)OC1=O (stereo unspecified),32

SMILES,NOMO-1 viab
O=C(COc1ccc(Br)cc1)NCCN1CCOCC1,24
Cc1noc(C)c1S(=O)(=O)Nc1cccc2c1O[C@@H](CN(C)Cc1ccncc1)[C@@H](C)CN([C@H](C)CO)C2=O,7
C[C@@H]1CN([C@@H](C)CO)C(=O)c2cc(NC(=O)c3ccncc3)ccc2O[C@@H]1CN(C)S(=O)(=O)c1ccccc1,22
OC(Cc1cccnc1)(c1ccccc1)c1ccccc1,9
Cc1ccc(NC(=O)C(=O)NCCc2c[nH]c3ccccc23)cc1Cl,41
c1ccc(CNc2ncnc3scc(C4COc5ccccc5O4)c23)cc1 (stereo unspecified),19
C[C@@H]1CN([C@H](C)CO)C(=O)c2cc(NS(=O)(=O)c3ccccc3)ccc2O[C@H]1CN(C)Cc1ccc(C(F)(F)F)cc1,20
Cc1sc(NC(=O)COc2ccccc2C(C)C)c(C(N)=O)c1C,37
CC(C)(C)Nc1cccccc1=NCc1ccccc1,92*
C[C@H](CO)N1C[C@H](C)[C@H](CN(C)Cc2ccc(C(F)(F)F)cc2)Oc2ccc(NS(C)(=O)=O)cc2CC1=O,19

SMILES,NOMO-1 viab
C[C@@H]1CN([C@H](C)CO)C(=O)Cc2cc(NC(=O)Nc3ccc(C(F)(F)F)cc3)ccc2O[C@H]1CN(C)Cc1ccc(Oc2ccccc2)cc1,112*
COc1cc(NC(=O)COc2cccc(C)c2C)ccc1-c1cc2ccccc2oc1=O,131*
O=C(O)CSc1nnc(-c2ccncc2)n1-c1ccc(Cl)cc1,-20
O=C(CC1c2ccccc2Oc2ccccc21)Nc1ccccc1C(=O)N1CCCCC1,-3
C[C@@H]1CN([C@H](C)CO)C(=O)c2cccc(NS(=O)(=O)c3ccccc3)c2O[C@H]1CN(C)S(=O)(=O)c1ccc(F)cc1,4
C[C@@H]1CN([C@@H](C)CO)C(=O)c2cc(NS(=O)(=O)c3ccc(Cl)cc3)ccc2O[C@H]1CN(C)C(=O)Nc1cccc2ccccc12,2
C[C@H](CO)N1C[C@H](C)[C@H](CN(C)CC2CC2)Oc2ccc(NC(=O)CCC(F)(F)F)cc2C1=O,9
C[C@H]1CN([C@@H](C)CO)C(=O)c2cc(NC(=O)CCCCCC(=O)Nc3ccccc3N)ccc2O[C@@H]1CN(C)S(C)(=O)=O,16
COc1ccc(CN(C)C[C@H]2Oc3ccc(NS(=O)(=O)c4ccccc4)cc3C(=O)N([C@H](C)CO)C[C@H]2C)cc1,11
COc1ccc2c(c1)O[C@@H]1COc3cc4c(cc3[C@]1(O)C2=O)OCO4,8

# An excerpt of these results, as labelled records:
Compound: C[C@@H]1CN([C@H](C)CO)C(=O)Cc2cc(NC(=O)Nc3ccc(C(F)(F)F)cc3)ccc2O[C@H]1CN(C)Cc1ccc(Oc2ccccc2)cc1
  NOMO-1 viab: 112*

Compound: COc1cc(NC(=O)COc2cccc(C)c2C)ccc1-c1cc2ccccc2oc1=O
  NOMO-1 viab: 131*

Compound: O=C(O)CSc1nnc(-c2ccncc2)n1-c1ccc(Cl)cc1
  NOMO-1 viab: -20

Compound: O=C(CC1c2ccccc2Oc2ccccc21)Nc1ccccc1C(=O)N1CCCCC1
  NOMO-1 viab: -3

# (list continues)
SMILES,NOMO-1 viab
C[C@H](CO)N1C[C@H](C)[C@@H](CN(C)C(=O)NC2CCCCC2)Oc2c(NC(=O)C3CC3)cccc2C1=O,4
CC1CN(c2nc3ccccc3nc2SCC(=O)NCCc2ccccc2)CC(C)O1 (stereo unspecified),53
O=C(O)c1cccc(CN2CCN(c3ccccc3)CC2)c1,21
CNC(=O)Nc1cc(C(F)(F)F)cc(C(F)(F)F)c1,75
O=C(O)c1cc(O)c2c(c1)C(=O)c1cc(O)cc(O)c1C2=O,-10
C[C@@H]1CN([C@@H](C)CO)C(=O)c2cc(NC(=O)Nc3ccc(C(F)(F)F)cc3)ccc2O[C@@H]1CN(C)Cc1ccc(Oc2ccccc2)cc1,117*
COc1ccc(CN(C)C[C@@H]2Oc3ccc(NC(=O)Nc4ccc(C(F)(F)F)cc4)cc3CC(=O)N([C@@H](C)CO)C[C@@H]2C)cc1,17
Cc1ccc(S(=O)(=O)Nc2ccc3c(c2)CC(=O)N([C@@H](C)CO)C[C@H](C)[C@H](CN(C)C(=O)Nc2ccc(C(F)(F)F)cc2)O3)cc1,17
COc1ccc(NC(=O)Nc2ccc3c(c2)CC(=O)N([C@H](C)CO)C[C@@H](C)[C@@H](CN(C)Cc2ccc(Cl)c(Cl)c2)O3)cc1,115*
Cc1ccn2c(-c3csc(NCc4ccco4)n3)c(C)nc2c1,24

SMILES,NOMO-1 viab
CC1OC(OCC2(C)C=C3C4CCC5C6(C)CCC(O)C(C)(COC7OC(CO)C(O)C(O)C7O)C6CCC5(C)C4(C)CCC3(C(=O)O)CC2)C(O)C(O)C1O (stereo unspecified),17
CC(C)NC(=O)N(C)C[C@H]1Oc2ccc(NC(=O)c3ccncc3)cc2C(=O)N([C@@H](C)CO)C[C@@H]1C,26
COc1ccc(S(=O)(=O)Nc2ccc3c(c2)C(=O)N([C@@H](C)CO)C[C@@H](C)[C@H](CN(C)S(=O)(=O)c2ccc(C)cc2)O3)cc1,-5
C[C@@H]1CN([C@H](C)CO)C(=O)c2cc(NC(=O)Cc3ccccc3)ccc2O[C@H]1CN(C)C(=O)Nc1ccccc1,2
C[C@H](CO)N1C[C@H](C)[C@H](CN(C)S(=O)(=O)c2ccc(F)cc2)Oc2ccc(NC(=O)Nc3ccc(C(F)(F)F)cc3)cc2CC1=O,119*
Cc1sc2nc3n(c(=O)c2c1C)N=C(c1ccc(F)cc1)CS3,17
Cc1c(C#N)c(Sc2ccccc2NC(=O)c2ccccc2)nc2ccccc12,29
CNC[C@@H]1Oc2ccc(NC(=O)NC(C)C)cc2CC(=O)N([C@H](C)CO)C[C@@H]1C,6
C[C@@H]1CN([C@@H](C)CO)C(=O)c2cc(NC(=O)C3CC3)ccc2O[C@H]1CN(C)Cc1ccccc1,41
C[C@H]1CN([C@@H](C)CO)C(=O)c2cccc(NC(=O)Nc3ccc(C(F)(F)F)cc3)c2O[C@H]1CN(C)Cc1ccc(C(F)(F)F)cc1,114*

SMILES,NOMO-1 viab
COCC(C)NS(=O)(=O)c1ccc(NC(C)=O)cc1 (stereo unspecified),23
C[C@H](CO)N1C[C@H](C)[C@@H](CN(C)C(=O)Nc2ccc(C(F)(F)F)cc2)Oc2ccc(NS(C)(=O)=O)cc2C1=O,0
O=C(CSc1nccc(=O)[nH]1)Nc1cccc(I)c1,-2
C[C@H](CO)N1C[C@H](C)[C@@H](CN(C)Cc2ccncc2)Oc2ccc(NC(=O)Nc3ccccc3)cc2C1=O,-21
C[C@@H]1CN([C@H](C)CO)C(=O)c2cc(NC(=O)CCN3CCOCC3)ccc2O[C@H]1CN(C)S(=O)(=O)c1ccc(F)cc1,-7
C[C@H]1CN([C@@H](C)CO)C(=O)c2cccc(NS(=O)(=O)c3cccs3)c2O[C@H]1CN(C)Cc1ccncc1,1
CCOC(=O)c1ccccc1NC(=O)c1cc(Cl)ccc1NC(=O)c1ccc(OC)cc1,11
CC(C)c1ccccc1OCC(=O)Nc1ccccc1C(N)=O,73
CC(C)NC(=O)N(C)C[C@H]1Oc2ccc(NC(=O)Nc3ccccc3)cc2CC(=O)N([C@@H](C)CO)C[C@@H]1C,31
c1coc(CCC2NCCn3cccc32)c1 (stereo unspecified),57

SMILES,NOMO-1 viab
COc1cc2c(cc1NC(=O)COC(C)=O)oc1ccccc12,4
CC1(C)S[C@@H]2[C@H](NC(=O)[C@H](N)c3ccc(O)cc3)C(=O)N2[C@H]1C(=O)O,0
COc1cc2ccc(=O)oc2c(O)c1O,11
C[C@H]1CN([C@@H](C)CO)C(=O)Cc2cc(NC(=O)Nc3ccccc3)ccc2O[C@H]1CN(C)CC1CCCCC1,90*
COc1cc(S(=O)(=O)NCc2ccco2)ccc1Br,26
C[C@H](CO)N1C[C@H](C)[C@H](CN(C)S(C)(=O)=O)Oc2c(NS(=O)(=O)c3ccc(Cl)cc3)cccc2C1=O,21
COC(=O)CNC(=O)c1cn(-c2ccccc2)nc1-c1cccs1,105*
O[C@]12CO[C@H](c3ccc4c(c3)OCO4)[C@H]1CO[C@@H]2c1ccc2c(c1)OCO2,-8
CNC[C@H]1Oc2c(NS(=O)(=O)c3ccccc3)cccc2C(=O)N([C@H](C)CO)C[C@H]1C,-12
C[C@@H]1CN([C@H](C)CO)C(=O)Cc2cc(NC(=O)CCC(F)(F)F)ccc2O[C@H]1CN(C)C(=O)Nc1ccc(C(F)(F)F)cc1,-16

SMILES,NOMO-1 viab
Cc1noc(C)c1NC(=O)Nc1ccc2c(c1)C(=O)N([C@@H](C)CO)C[C@H](C)[C@H](CN(C)C(=O)Nc1ccc(C(F)(F)F)cc1)O2,10
C[C@@H]1CN([C@@H](C)CO)C(=O)c2cc(NC(=O)CCCN(C)C)ccc2O[C@H]1CN(C)S(C)(=O)=O,-9
C[C@@H]1CN([C@H](C)CO)C(=O)c2cc(NC(=O)Cc3ccccc3)ccc2O[C@H]1CN(C)Cc1ccncc1,11
CCN1CCN(c2c(Cl)cccc2NC(=O)COc2ccc(OC)cc2)CC1,19
OC(COc1ccc(F)cc1)(c1ccc(Cl)cc1)c1ccc(Cl)cc1,121*
C[C@@H]1CN([C@@H](C)CO)C(=O)c2cccc(NC(=O)c3ccncc3)c2O[C@@H]1CN(C)S(C)(=O)=O,1
CCCn1nnc(NC(=O)COc2ccc(Cl)cc2C)n1,-1
Cc1ccc(NC(=O)COc2ccccc2C)c([N+](=O)[O-])c1,-19
C[C@H](CO)N1C[C@H](C)[C@@H](CN(C)S(=O)(=O)c2cn(C)cn2)Oc2c(NC(=O)c3cnccn3)cccc2C1=O,6
CCn1c(SCC(=O)Nc2ccc3c(c2)OCCO3)nnc1-c1cccnc1,28

SMILES,NOMO-1 viab
C[C@H](CO)N1C[C@H](C)[C@@H](CN(C)Cc2ccc3c(c2)OCO3)Oc2ccc(NC(=O)CCCN(C)C)cc2C1=O,-2
C[C@H](CO)N1C[C@H](C)[C@@H](CN(C)Cc2ccncc2)Oc2c(NC(=O)CCCCCC(=O)Nc3ccccc3N)cccc2C1=O,15
O=C(CSCc1cc(=O)[nH][nH]1)Nc1ccc(F)cc1,26
Cc1noc(C)c1S(=O)(=O)Nc1ccc2c(c1)C(=O)N([C@@H](C)CO)C[C@@H](C)[C@@H](CN(C)Cc1ccc(Cl)c(Cl)c1)O2,82*
Cc1nnc(SCc2cc(=O)[nH]c(Nc3nc(C)c4cccc(C)c4n3)n2)s1,-5
Cc1noc(C)c1NC(=O)Nc1ccc2c(c1)CC(=O)N([C@H](C)CO)C[C@H](C)[C@H](CN(C)C(=O)NC(C)C)O2,2
COc1cc(/C(C)=C/C(C)=C\C(=O)O)oc(=O)c1C,2
C[C@@H]1CCCCO[C@@H](CN(C)C(=O)Cc2ccccc2)[C@@H](C)CN([C@H](C)CO)C(=O)c2cc(NS(C)(=O)=O)ccc2O1,4

# High-throughput results deposited in PubChem by Broad Institute.
